Screening results: PubChem BioAssay, several laboratories
ALR inh: inhibitors of human ALR sulfhydryl oxidase, primary screen, biochemical, H2O2 detection, HRP-luminol luminescence, single point | FAD-linked sulfhydryl oxidase ALR (Homo sapiens), P55789 | purified ALR, DTT oxidation | inhibition, % (test concentration not listed) | 3.8% of 290,000 active;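 active means mean and each replicate at 75% or more; inconclusive means only one of the two met; inactive means neither met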;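 further: stock transfer was 7.5 nL into about 7.5 µL; 0% = neutral wells and 100% = wells with inactivated enzyme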
Target sequence (P55789 whole entry, looked up): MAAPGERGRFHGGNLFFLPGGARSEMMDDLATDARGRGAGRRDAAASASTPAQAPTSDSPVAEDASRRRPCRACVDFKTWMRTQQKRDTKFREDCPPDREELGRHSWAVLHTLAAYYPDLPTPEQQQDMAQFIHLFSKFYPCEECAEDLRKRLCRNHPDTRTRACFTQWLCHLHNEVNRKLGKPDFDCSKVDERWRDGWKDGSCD
HNF4A DNA FP: change in binding of human HNF4A to DNA, primary screen, biochemical, fluorescence polarization, FITC-DNA; Hepatocyte nuclear factor 4-alpha (Homo sapiens), P41235; 1 h; activity change, % at 10 µM; 0.3% of 360,000 active; in the data active means activity change above about 30%, passing the limit was not always enough;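 further: controls were the assay level and a saturating level of protein; the project sought stronger binding though the title names inhibitors; some compounds called inactive have numbers as strong as hits; positive values seem to mean higher polarization but the record does not say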
Target sequence (P41235 whole entry, looked up): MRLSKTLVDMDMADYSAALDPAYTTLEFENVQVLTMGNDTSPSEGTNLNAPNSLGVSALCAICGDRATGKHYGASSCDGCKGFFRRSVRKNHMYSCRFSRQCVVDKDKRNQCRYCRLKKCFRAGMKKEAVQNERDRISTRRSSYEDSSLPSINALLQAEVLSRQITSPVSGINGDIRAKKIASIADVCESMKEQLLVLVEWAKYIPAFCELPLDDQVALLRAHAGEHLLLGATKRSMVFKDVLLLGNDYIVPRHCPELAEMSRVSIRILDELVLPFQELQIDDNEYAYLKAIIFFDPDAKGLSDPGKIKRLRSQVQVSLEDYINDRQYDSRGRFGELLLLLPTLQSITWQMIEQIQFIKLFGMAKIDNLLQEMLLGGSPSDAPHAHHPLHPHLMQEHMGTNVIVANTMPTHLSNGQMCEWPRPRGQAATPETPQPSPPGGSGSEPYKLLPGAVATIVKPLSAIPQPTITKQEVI
LANA-H2A inh: blockers of LANA interaction with H2A/H2B – biochemical, FP readout, HTS, primary screen; Protein LANA1 (Human herpesvirus 8 type P (isolate GK18)), Q9QR71; cell-free LANA-H2A/H2B peptide, fluorescence polarization; inhibition, % (concentration not given with the values); 0.6% of 320,000 active; AID 2629, 2010; in the data active means inhibition mostly above about 10%, no sharp cut-off; inactive means mostly below about 6.7%;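 further: stock transfer was 7.5 nL into about 10 µL; 0% = median of vehicle wells and 100% = median of positive control wells; one replicate is shown; the record names a cut of 25% in any replicate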
Vif TR-FRET: inhibitors of Vif binding to APOBEC3G peptide, primary screen, biochemical, TR-FRET, GST-Vif 1-94, biotin-A3G peptide, dose response retest (AID 1117319); Virion infectivity factor (Human immunodeficiency virus type 1 group M subtype B (isolate …; TR-FRET GST-Vif / biotin-A3G peptide binding; higher % means a stronger effect; test concentration not given here; strong numbers were not always called active; 0.57% of 260,000 active; inhibition, %, or IC50 in µM where a hit was titrated;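 active means above the screen mean plus three standard deviations and confirmed in dose response; inconclusive means results disagree or hit not tested in dose response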;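 further: Vif residues 1-94 fused to GST binding biotinylated APOBEC3G peptide 110-148; 0% = full assay without inhibitor and 100% = GST in place of GST-Vif; retest series ran down from 100 µM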
RanGTP-Impb inh: inhibitors of RanGTP-importin-beta interaction, primary screen, biochemical, FRET, CFP-Ran, YFP-importin-beta, homogeneous | Ran GTPase (GTP-bound) - importin-beta complex | cell-free CFP-Ran/YFP-importin-beta FRET ratio | inhibition, % (no concentration beside the values) | 1.1% of 300,000 active;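 active means most replicates above 15%; inconclusive means exactly half above 15%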;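 further: 0% = DMSO wells and 100% = Ran loaded with GDP instead of GTP; wells of about 40 µL received 100 nL stock; the first replicate is given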
Beta2AR agonist: beta2AR agonists driving receptor internalization, primary screen, cell-based, FAP fluorogen, flow cytometry; Beta-2 adrenergic receptor (Homo sapiens), P07550; Am2.2-beta2AR cells; reference of the scale not given here; response, % (test concentration not listed); 0.43% of 340,000 active; AID 504454, 2011;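 active means response above a set limit, near 3 SD of response in nonfluorescent compounds, cut at about 42% in these data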;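 further: stock transfer was 100 nL into about 11 µL; a reference agonist was the positive control; negative values mostly stem from fluorescent compounds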
Calb FLC: C. albicans growth inhibition with fluconazole, primary screen, CaCi-2 strain, Alamar Blue fluorescence. AID 1979, 2009. C. albicans CaCi-2 (fluconazole-resistant clinical isolate) + fluconazole, 48 h. 0.57% of 300,000 active. growth inhibition, % (concentration not given with the values);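 active means most replicates above 75%; inconclusive means exactly half above 75%; inactive means most below 75%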;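 further: all wells also contain fluconazole at 8 µg/ml as a sub-toxic cotreatment; 0% = median of DMSO wells and 100% = median of geldanamycin control wells; wells of about 8 µL received 7.5 nL stock; the first replicate is given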
* marks the source's active call; other numbers are inactive results; ? = inconclusive; . = not tested or not shown. No enrichment for hits. Share with any hit: about 6.3%.

SMILES | ALR inh | HNF4A DNA FP | LANA-H2A inh | Vif TR-FRET | RanGTP-Impb inh | Beta2AR agonist | Calb FLC
NNC(=O)c1ccc(CSc2nc3ccccc3s2)cc1 | -16 | 6.3 | 4.5 | . | -2.2 | 1 | 0
CCn1c(C(O)c2cc(OC)c(OC)c(OC)c2)nc2ccccc21 (centres undefined) | -11 | -2.3 | 4.1 | 33% | 0.8 | -8 | 2
COc1ccc(CCn2c(-c3ccc(C(C)(C)C)cc3)n[nH]c2=S)cc1OC | 0 | 3.6 | -1.0 | -8% | -2.1 | -9 | 22
O=C(CCCN1C(=O)/C(=C/c2ccccc2Cl)SC1=S)NNC(=O)c1ccncc1 | -2 | 1.1 | -1.3 | -11% | 2.1 | 3 | -2
CC1=NN(C(=O)COc2ccccc2)C(O)(c2ccccc2)C1 (centres undefined) | . | -0.2 | -1.9 | . | 0.4 | 19 | -16
CC(=O)Nc1ccccc1-c1nc2ccc(C(=O)N3CCN(c4cccc(C)c4)C(C)C3)cc2[nH]c1=O (centres undefined) | 72 | 1.6 | -1.2 | 6% | 0.5 | 1 | 5
CC(=O)CC(c1ccccc1)S(=O)(=O)c1ccc([N+](=O)[O-])cc1 (centres undefined) | . | -2.0 | -2.5 | . | 3.7 | -3 | 17
O=C(NCC1CCCO1)c1cccc(NC(=O)c2ccco2)c1 (centres undefined) | 0 | 2.0 | -2.0 | -3% | 1.7 | 3 | -2
C/C(=N\NC(=O)Cc1ccccc1[N+](=O)[O-])c1cccnc1 | 11 | 2.6 | -1.1 | . | 2.4 | -8 | -10
COc1ccc(-c2cc(C(=O)NCC3CCCO3)c3ccccc3n2)c(OC)c1 (centres undefined) | 0 | 0.5 | 0.9 | . | 1.2 | -17 | 4
Clc1cccc(CNCCCSc2ncccn2)c1Cl | . | -3.8 | 0.4 | . | 7.1 | -7 | 8
Cc1cccc(C)c1NC(=O)CSc1nc2ccccc2c(=O)[nH]1 | -1 | 1.6 | -1.2 | -7% | -1.1 | -4 | 5
CCC(C)N(C)Cc1cccc(C2(O)CCN(S(=O)(=O)c3ccc(F)cc3)CC2)c1 (centres undefined) | -5 | -3.4 | -0.6 | 21% | 1.0 | 4 | 1
CC(C)(C)SCCNC(=O)/C=C/c1ccc(F)cc1 | -3 | 2.1 | 2.5 | 9% | 4.2 | -6 | -19
COC(=O)c1c(NC(=O)c2ccn(C)n2)sc2c1CCC2 | -3 | -0.1 | 2.4 | . | -1.0 | -15 | 17
CCCCNC(=O)NCC(=O)Nc1ccc(F)c(F)c1 | -1 | 1.5 | -0.6 | -4% | -2.4 | -4 | -2
COc1ccc(NC(=O)CN(c2ccc(OC)cc2)S(=O)(=O)c2c(C)nn(C)c2C)cc1 | 10 | 9.1 | 0.9 | 2% | 4.8 | -6 | 8
COC(=O)[C@@H](Cc1c[nH]c2ccccc12)NC(=O)c1ccc2c(c1)OCO2 | -8 | 0.4 | 2.5 | 0% | -1.2 | 9 | -2
Cc1nc2ccccc2c(C)c1CC(=O)OC(C)C(=O)NC1(C#N)CCCCC1 (centres undefined) | . | -3.3 | 3.2 | -1% | 0.4 | -3 | -7
COc1ccc(-c2cc(C)no2)cc1S(=O)(=O)N1CCCCC1 | 0 | 3.5 | -2.1 | . | 4.3 | -18 | 25

Compound profiles, as listed above:
`COC(=O)[C@@H](Cc1c[nH]c2ccccc12)NC(=O)c1ccc2c(c1)OCO2` across the screens: ALR inh: -8; HNF4A DNA FP: 0.4; LANA-H2A inh: 2.5; Vif TR-FRET: 0%; RanGTP-Impb inh: -1.2; Beta2AR agonist: 9; Calb FLC: -2
`O=C(CCCN1C(=O)/C(=C/c2ccccc2Cl)SC1=S)NNC(=O)c1ccncc1` across the screens: ALR inh: -2; HNF4A DNA FP: 1.1; LANA-H2A inh: -1.3; Vif TR-FRET: -11%; RanGTP-Impb inh: 2.1; Beta2AR agonist: 3; Calb FLC: -2
`COc1ccc(-c2cc(C)no2)cc1S(=O)(=O)N1CCCCC1` across the screens: ALR inh: 0; HNF4A DNA FP: 3.5; LANA-H2A inh: -2.1; Vif TR-FRET: .; RanGTP-Impb inh: 4.3; Beta2AR agonist: -18; Calb FLC: 25

The main list resumes, starting 3 compounds before the break.
SMILES | ALR inh | HNF4A DNA FP | LANA-H2A inh | Vif TR-FRET | RanGTP-Impb inh | Beta2AR agonist | Calb FLC
COC(=O)[C@@H](Cc1c[nH]c2ccccc12)NC(=O)c1ccc2c(c1)OCO2 | -8 | 0.4 | 2.5 | 0% | -1.2 | 9 | -2
Cc1nc2ccccc2c(C)c1CC(=O)OC(C)C(=O)NC1(C#N)CCCCC1 (centres undefined) | . | -3.3 | 3.2 | -1% | 0.4 | -3 | -7
COc1ccc(-c2cc(C)no2)cc1S(=O)(=O)N1CCCCC1 | 0 | 3.5 | -2.1 | . | 4.3 | -18 | 25
S=C(NC1CCCCC1)N1CCn2cccc2C1c1ccncc1 (centres undefined) | -5 | 2.1 | 1.7 | 10% | 0.4 | -2 | 3
CC(=O)NCCn1c(C)cc2ccccc21 | -25 | -8.3 | -3.5 | 11% | -2.5 | -6 | -6
O=C(c1cccs1)N1CCCC(c2nc3c(nnn3Cc3ccccc3)c(=O)[nH]2)C1 (centres undefined) | -2 | -0.5 | 2.6 | -10% | 5.6 | -6 | 1
COC(=O)c1ccc(C)c(NC(=O)COC(=O)C2CC3CCCC(C2)C3=O)c1 (centres undefined) | . | -2.9 | . | -7% | 6.0 | -5 | -4
CCOC(=O)CNC(c1ccccc1)c1cc(Br)ccc1NC(C)=O (centres undefined) | -19 | 0.0 | 0.1 | 4% | -3.1 | 6 | 5
Cc1cc(C(=O)Nc2ccc(S(=O)(=O)Nc3nccs3)cc2)c(C)o1 | 28 | 3.6 | -3.3 | 3% | -1.2 | 7 | -17
O=C(Nc1ccc(Cl)cn1)c1cc2ccccc2o1 | 30 | -1.7 | -22 | 0% | 5.1 | -8 | -5
CC(=S)/C=C1\Sc2ccccc2N1C | 83* | 4.2 | 0.2 | 5% | -0.9 | 0 | 117*
COc1cccc(N2CCN(C(=O)Nc3ccccc3Cl)CC2)c1 | 87* | -0.4 | -1.7 | -3% | -5.1 | 4 | -5
COc1ccc(NS(=O)(=O)c2ccc3oc(=S)[nH]c3c2)cc1 | . | -2.8 | -1.9 | 21% | -3.6 | 10 | -1
COC(=O)c1ccc2c(c1C(=O)OC)CN(S(=O)(=O)C(C)(C)C)[C@@H]2CCO | . | 2.5 | . | 0% | . | -5 | .
COc1cc(-c2cn[nH]c2N)cc(OC)c1OC | -6 | 1.2 | -1.0 | -1% | -3.6 | 0 | -2
Clc1ccccc1/C=C/c1nc(-c2cccnc2)no1 | 1 | 3.5 | 4.5 | ? | -4.2 | -5 | 6
CC(=O)NC(Cc1c[nH]c2ccccc12)C(=O)OCC(=O)Nc1cc(C)on1 (centres undefined) | . | 0.1 | 3.0 | 0% | ? | 4 | -3
O=C(Cn1ncc2c3ccccc3n(Cc3cccc(Cl)c3)c2c1=O)NCc1ccccn1 | -1 | 26 | -1.7 | . | 0.3 | -8 | -1
Nc1ccc(Nc2nc(-c3ccncc3)cs2)cc1 | 39 | 1.1 | -7.9 | 0% | 3.6 | 20 | 6
COc1ccc(-n2nc3c(c2NC(=O)Cc2cccc(C)c2)CS(=O)C3)cc1 (centres undefined) | . | -0.4 | -3.7 | 16% | 3.5 | -11 | -9
C=C(C)COc1ccc(-c2nc(N)ncc2-c2ccc(Br)cc2)c(O)c1 | -6 | 0.7 | 2.9 | -4% | -1.7 | 5 | 0
CCn1c(CSCc2c(Cl)cccc2Cl)n[nH]c1=S | 68 | 0.9 | 0.4 | 4% | -2.8 | 4 | -4
